ClpP mod: qHTS Assay for Activators of ClpP; ATP-dependent Clp protease proteolytic subunit (Bacillus subtilis (strain 168)), P80244; purified B. subtilis ClpP, FRET peptide cleavage, 20 min; Potency, µM (series often up to 57.5 µM), for the others: at the top dose activity change, negative = active; actives 1.9% (n = 340,000); AID 651965, 2013; active = well fitted falling curve with a large enough effect; inconclusive = small, poorly fitted or top-dose-only effect; inactive = no such curve, though single readings can be large or run the other way; note: potency is the fitted concentration of half-maximal effect; the source files actives as falling curves though it sought activators and does not explain the sign; nearly all actives have a fitted effect of over 65% in size; many hits overshoot -100%
Target sequence (P80244 whole entry, looked up): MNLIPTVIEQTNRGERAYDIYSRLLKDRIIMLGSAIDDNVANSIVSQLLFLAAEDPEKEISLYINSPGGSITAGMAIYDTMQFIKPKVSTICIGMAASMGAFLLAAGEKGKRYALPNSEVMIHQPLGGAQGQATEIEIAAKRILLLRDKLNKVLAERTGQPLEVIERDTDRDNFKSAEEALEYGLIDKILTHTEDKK
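ClpP 10 microg/mL final, pH 8 Tris/KCl buffer with BSA, glycerol, Tween-20; compound pinned in; FRET-FV substrate; RT 20 min; Ex320/Em430; ΔFRET vs ADEP 5.8 microM, DMSO, no enzyme.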
gsp antagonist: antagonists of gsp mutant (McCune-Albright syndrome) | Potency, µM (top dose mostly 76.9 µM), inactives show at the highest dose activity change, negative = inhibition, actives largely listed as inhibitors | gsp-mutant cells, cAMP HTRF, 30 min; control for the full effect not named in the record | actives 0.4% (n = 340,000); active = falling curve of any shape with a large fitted effect; inconclusive = falling curve, mostly with a smaller effect; inactive = flat or rising curve; cell line not stated here;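 note: intracellular cAMP measured with PDE inhibitor Ro 20-1724 present during compound exposure; potency is the fitted concentration of half-maximal effect; % is set by controls: 0 for no effect and ±100 for the full control effect; nearly all actives have a fitted effect of over 65% in size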
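G418-selected cells were plated in DMEM/10% FBS for 16-24 h at 37C, then treated with compounds plus the PDE inhibitor […] (300 uM solution added) for 30 min at 37C. Intracellular cAMP was measured by HTRF after 30 min lysis at room temperature.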
Menin-MLL FL inh: inhibitors of human menin-MLL interaction, wild-type MLL peptide; AID 1766; 290,000 tested, under 10 active; FP activity change, % at 61.4 µM; Fluorescence polarization, fluorescein-MLL peptide displacement from menin; inconclusive = falling polarisation curve, or a change in total fluorescence; inactive = total fluorescence flat and polarisation flat or rising; no compound was filed as active; the % refers to the polarisation; negative = inhibition;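 note: % of control where 0% means no effect; inhibitors lower the polarisation; unlabelled MLL peptide was the positive control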
gsp agonist: activates gsp, the McCune-Albright syndrome mutation; gsp mutant cells, cAMP HTRF, 30 min; control for the full effect not named in the record; Potency, µM (top dose mostly 76.9 µM), inactives show at the highest dose activation (cAMP increase), most hits filed as activators; actives 0.13% (n = 340,000); active = well fitted activation curve with a large enough effect; inconclusive = small, poorly fitted or top-dose-only effect, or another doubt; inactive = no such curve, though single readings can be large or run the other way; cell line not stated here;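 note: phosphodiesterase inhibitor Ro 20-1724 added with compounds to block cAMP breakdown; potency is the fitted concentration of half-maximal effect; nearly all actives have a fitted effect of over 60% in size; about a fifth of the inactives were tested at one dose only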
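Cells in DMEM/10% FBS with G418 were pretreated with compounds in DMSO plus […] (300 uM stock) for 30 min at 37C. cAMP was measured by HTRF (cAMP-d2 plus anti-cAMP antibody-K) after 30 min at room temperature.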
TRPML1 inh: inhibitors of human TRPML1 channel | TRPML1-inducible cells, Ca2+ dye fluorescence, FDSS; active compounds read low; inhibition of EC80 agonist-evoked calcium signal | Q9GZU1 | activity change, negative = inhibition, % (no concentration beside the values) | AID 624415 | actives 0.02% (n = 390,000); in the data active means activity change below about -50%; inconclusive means about -30% to -50%; inactive means above about -30%;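 note: stimulus is agonist 54-4 at its EC80 concentration; % is set by controls: 0 for no effect and ±100 for the full control effect; compound concentration not given in the record; the text of the record puts the active cut at -80%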
Target sequence (Q9GZU1 whole entry, looked up): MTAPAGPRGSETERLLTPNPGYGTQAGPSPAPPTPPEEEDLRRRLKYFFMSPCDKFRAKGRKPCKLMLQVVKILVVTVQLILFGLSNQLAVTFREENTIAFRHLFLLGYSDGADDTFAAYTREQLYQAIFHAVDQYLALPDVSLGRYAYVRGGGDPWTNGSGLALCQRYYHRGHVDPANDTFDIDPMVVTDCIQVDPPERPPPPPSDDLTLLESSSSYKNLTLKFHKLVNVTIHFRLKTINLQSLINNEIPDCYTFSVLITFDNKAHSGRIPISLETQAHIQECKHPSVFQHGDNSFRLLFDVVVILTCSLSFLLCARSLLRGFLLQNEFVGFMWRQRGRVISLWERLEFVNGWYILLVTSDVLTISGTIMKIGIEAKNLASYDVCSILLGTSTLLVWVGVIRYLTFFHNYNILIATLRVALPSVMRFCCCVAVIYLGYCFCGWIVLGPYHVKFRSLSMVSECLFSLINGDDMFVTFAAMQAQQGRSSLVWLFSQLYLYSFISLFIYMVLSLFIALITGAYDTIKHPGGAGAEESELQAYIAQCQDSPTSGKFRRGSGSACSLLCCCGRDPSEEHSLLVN
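Tet-induced TRPML1-DL cells loaded with Ca8 no-wash calcium dye were read kinetically on FDSS. Compound addition was followed by EC80 agonist 54-4 (4 uM final); inhibition was read over 110 s.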
TRPML1 ag: activates the human TRPML1 channel | Q9GZU1 | TRPML1-expressing cells, Ca2+ dye fluorescence, FDSS; host cell line not named in the record; reference of the full effect not given here | activation, % (no concentration beside the values) | actives 0.12% (n = 410,000) | AID 624414; in the data active = activation above about 50%; inconclusive = about 30% to 50%; inactive = below about 30%; note: 0% is about no effect; the text of the record puts the active cut at 80%
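TRPML1-DL cells, Tet-induced overnight (~16 h, 37 degrees C), loaded 45-90 min at room temperature with Ca8 no-wash calcium dye plus quencher. FDSS fluorescence: 10 s baseline, compound pin-transfer, 110 s agonist read, then EC80 54-4 (4uM final) and 110 s antagonist read.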
The depositor's hits bear a star; ? = inconclusive; · = not tested or not shown; & = joins results of further samples; [ ] = dose if it differs, or a comment. Rows are unselected; any-hit rate near 2.1%.

Every second line gives: gsp antagonist	ClpP mod	gsp agonist	TRPML1 ag	Menin-MLL FL inh	TRPML1 inh
Cc1cccc(NC(=O)CC(C)S(=O)(=O)c2ccc3c(c2)NC(=O)CO3)c1C (stereo unspecified)
→ 0%	0.5%	2%	1.2	·	22
O=C(COC(=O)c1ccc(S(=O)(=O)NCc2ccco2)cc1)Nc1ccc(Cl)cn1
→ 7%	·	0%[15.4 µM]	0.5	0.7	-1
CCOc1cccc(CNC(=O)c2ccc(N3CCCC3)c(NC(=O)NCc3ccc(F)cc3)c2)c1
→ ·	-3.7%	·	0.4	·	25
C=C(C)n1c(=O)n(Cc2ccccc2C)c2ccccc21
→ 1%	-0.7%	-5%	·	-5.8	·
COc1cc(-c2ccc3c(=O)c4ccccc4sc3c2)cc(OC)c1OC
→ ?	-22%	38%	0.4	·	-4
O=C(NC1(C(F)(F)F)C(=O)Nc2c1c(=O)[nH]c(=O)n2-c1ccc(F)cc1)c1ccccc1 (stereo unspecified)
→ ·	-0.9%	·	-0.5	·	-7
COc1cccc(OC)c1C(=O)Nc1ccc(N2CCCC2)cc1
→ -22%	·	-63%[inhibitor]	-0.1	-0.8	6
COc1ccc(C)cc1N(C(=O)c1ccc(F)cc1)c1nc2ccccc2s1
→ -12%	-9.6%	?	1.0	2.4	28
CCOc1cc(NC(=S)N2CCC(C(N)=O)CC2)c(C(=O)OC)cc1OCC
→ 4%	-0.8%	9%	0.0	-0.8	-29
COc1ccccc1N(C(=O)CN1C(=O)c2ccccc2S1(=O)=O)C(C(=O)NCC1CCCO1)c1ccc(F)cc1 (stereo unspecified)
→ -3%	0.6%	-4%	0.4	-1.1	-13
COc1ccc(C(=O)Nc2cccc(C(C)=O)c2)cc1OC
→ 4%	-1.2%	-28%	1.1	0.9	19
Nc1ccc2cc3[nH]c4cc(N)ccc4c3nc2c1
→ ?	-13%	?	29	·	-15
COc1ccc(C(=O)Nc2ccnn2C2CCN(C(=O)CCC(F)(F)F)CC2)cc1
→ 15%	-1.9%	-33%[inhibitor]	0.3	-2.0	8
CCCCN1C(=S)SC(C)(C)C1/[N+]([O-])=C/c1cccnc1 (stereo unspecified)
→ 3%	2.4%	0%	-0.1	-1.5	-1
COc1ccc(NS(=O)(=O)c2cccc(C(=O)NN=Cc3ccc(OC)cc3OC)c2)cc1
→ 17%	-27%	-37%	-0.5	·	0
Cc1ccc(C2=NN(C(=O)c3cccs3)C(c3ccccc3O)C2)cc1 (stereo unspecified)
→ -23%	·	-15%	2.4	-0.2	-18
O=C(CCc1ccc(S(=O)(=O)NC2CCCCC2)cc1)N(Cc1ccccc1)Cc1ccccc1
→ -7%	1.4%	0%	3.2	2.6	13
Cc1cc(N(C)C)c(C#N)c(=O)[nH]1
→ 7%	-2.0%	-21%	-0.2	2.6	-1
CCOC(=O)c1cnc2c(C)cccc2c1NCCc1ccc(OC)c(OC)c1
→ -8%	-12%&-12%	2%	3.7&1.3	-0.4	22&-2
C[C@@H](c1ccccc1)N1Cc2ccccc2Oc2cc(Br)ccc2S1(=O)=O
→ -6%	-2.2%	·	1.2	·	45
Cc1ccc(CC(=O)NC(C)CCc2ccccc2)cc1 (stereo unspecified)
→ 3%	-1.8%	11%	-0.4	7.4	-6
CC(C)(C)OC(=O)CN1C(=O)C(Sc2n[nH]c(-c3ccccc3)n2)CCc2ccccc21 (stereo unspecified)
→ -8%	0.0%	-46%[inhibitor]	-0.7	-1.4	1
Cc1nc2ccccc2c2oc(C(=O)Nc3ccc4c(c3)OCCO4)cc12
→ ?	254%	-14%	1.5	5.4	-1
Cc1cccc(C)c1OCc1nnc(SCC(=O)Nc2cccc(C(=O)N3CCOCC3)c2)n1C
→ 2%	-2.0%	-5%[15.4 µM]	0.1	·	9
CCN(C1CCCCC1)S(=O)(=O)c1ccc(S(=O)(=O)NCCc2ccncc2)cc1
→ -13%	1.1%	-8%	-0.5	1.4	2
COC(=O)[C@H](CC(C)C)NS(=O)(=O)N[C@@H](CC(C)C)C(=O)OC
→ 5%	3.2%&0.7%	4%	-0.3&-0.7	·	-5
CCCc1ccc(S(=O)(=O)N/N=C\c2ccc3c(c2)OCO3)cc1
→ -9%	1.1%	20%	-0.3	1.7	-22
CCN(CCNC(=O)Cn1cc2c(n1)CCCC2)c1ccccc1
→ -5%	-1.2%	-45%[inhibitor]	0.9	3.4	0
Cc1cnc(C(=O)OCC(=O)N(Cc2ccccc2)C(C)C)cn1
→ -1%	·	3%	-0.3	-2.8	22
C[C@@H]1CN([C@@H](C)CO)C(=O)CCCn2cc(nn2)CO[C@H]1CN(C)S(=O)(=O)c1ccccc1C#N
→ ·	-4.0%	?	0.4	·	28
Cc1ccc(C)c(N2CCN(C(=O)C3CCC3)CC2)c1
→ -4%	1.0%	-20%	1.5	-0.6	1
CCc1c(C)sc(NC(=O)C2CCCO2)c1C#N (stereo unspecified)
→ 3%	-12%	22%	0.1	1.0	8
COc1ccc2[nH]c(=O)c(CN(Cc3cccs3)C(=S)NCC3CCCO3)cc2c1 (stereo unspecified)
→ -12%	3.0%	6%	-0.9	-0.3	4
N#Cc1cn(CC(=O)N2CCc3ccccc3C2)c2ccccc12
→ -2%	-4.3%	-14%	-0.7	0.8	0
O=C(CCCn1cc([N+](=O)[O-])cn1)N1CCCCC1
→ 5%	0.0%	6%[15.4 µM]	0.6	0.6	8
O=C(c1ccco1)N(Cc1ccccc1)Cc1ccccn1
→ 9%	0.0%	-36%[inhibitor]	-0.7	4.2	4
CC(C)(C)C(=O)Cn1c[n+](N)cn1
→ -6%	-4.9%	-21%	-0.3	0.4	29
Cc1cc(Nc2ccccc2C(=O)O)n2ncnc2n1
→ ·	-14%	?	0.0	·	34
N/C(=N\N=C\c1ccc([N+](=O)[O-])cc1)c1nonc1N
→ 12%	·	-18%	-0.4	-4.6	9
Cc1ccc2nc(SC(C)C(=O)N3CCCC3)[nH]c2c1 (stereo unspecified)
→ 2%	-3.7%	20%	-0.3	1.0	-16
O=C(NCc1ccco1)C1CC(c2cc(C(F)(F)F)cc(C(F)(F)F)c2)=NO1 (stereo unspecified)
→ 6%	0.3%	1%	0.1	0.5	40
O=C(NC1CC(=O)N(c2ccccc2)C1)c1ccc(S(=O)(=O)N2CCOCC2)cc1 (stereo unspecified)
→ ·	-2.1%	·	0.3	·	12
O=C1COc2ccc(NC(=O)N3CCN(c4ccc(F)cc4)CC3)cc2N1
→ -10%	-2.7%	?	-0.3	2.0	7
Cc1ccc(OCCNC(=O)/C=C/c2ccccc2)cc1
→ -11%	-2.6%	23%[15.4 µM]	0.1	0.0	-17
COc1ccc(NC(=O)CSc2ccc(-c3ccco3)nn2)cc1
→ -9%	0.6%	-2%	1.1	·	25
C/C(=N/NC(=O)c1cnccn1)c1ccncc1
→ 10%	·	7%[15.4 µM]	0.9	-3.0	32
CCN(CC)S(=O)(=O)c1cccc(-c2n[nH]c(=S)n2/N=C/c2ccc(OC(F)F)cc2)c1
→ -13%	-2.4%	-17%	3.7	6.8	90
O=C(Nc1cccc(C(F)(F)F)c1)c1cc(-c2ccco2)on1
→ 1%	·	7%	1.3	5.5	16
CC1(C)C(=Cc2ccccc2)C(=O)c2ccccc21
→ ·	-0.7%	-19%	-0.1	·	6
Nc1c(O)cccc1C(=O)O
→ -13%	3.4%	·	-0.3	·	12
COCc1ccc(CN2CCCC(CO)(Cc3ccccc3C)C2)o1 (stereo unspecified)
→ ·	·	2%[15.4 µM]	2.3	1.2	-8
CCNC(=S)N(CCCN(C)C)Cc1cc2cc3c(cc2[nH]c1=O)OCCO3
→ -14%	4.0%	-7%	0.0	-5.6	9
Cc1ccc2c(c1)c1c3n2CCN(C(=O)CN2CCN(C)CC2)C3CCC1 (stereo unspecified)
→ 6%	?	-29%	1.8	2.1	-16
CCOC(=O)c1c(NC(=O)COc2ncnc3ccccc23)sc(C(C)=O)c1C
→ -4%	-2.2%	?	1.3	10.0	14
COc1ccccc1N1CCN(Cc2ccsc2)CC1
→ 7%	-2.9%	-33%[inhibitor]	0.6	2.9	3
Cc1cc(C)cc(N2C(N)=NC(N)=NC2c2cccc(Cl)c2)c1 (stereo unspecified)
→ 9%	·	-8%	0.1	-11	5
COc1ccc(CNC(=O)c2ccc(N3CCOCC3)c([N+](=O)[O-])c2)cc1
→ 0%	·	14%	-0.1	-5.3	3
CC(=O)N1CCN(C(=O)c2ccc3c(c2)OCO3)CC1
→ 9%	·	?	-0.5	·	6
CCn1c2ccccc2c2cc(C3N=C(N)Nc4nc5ccccc5n43)ccc21 (stereo unspecified)
→ 7%	-0.9%	-21%	0.6	1.7	-5
O=C(c1cc2ccccc2oc1=O)N(Cc1ccc(F)cc1)C1CCS(=O)(=O)C1 (stereo unspecified)
→ -17%	-27%	-9%	5.6	1.3	16

The list continues.
Every second line gives: gsp antagonist	ClpP mod	gsp agonist	TRPML1 ag	Menin-MLL FL inh	TRPML1 inh
O=C(CC1C(=O)OCCN1Cc1ccccc1)Nc1cccc(Cl)c1 (stereo unspecified)
→ ·	-2.3%	·	0.5	·	-12
COc1ccc(CNC(=O)CSc2nnc3c(n2)[nH]c2ccc(F)cc23)cc1
→ -3%	·	-5%[15.4 µM]	-0.3	5.5	-9
O=C(O)c1cccc(-n2cccc2/C=C2\SC(=O)N(Cc3ccccc3F)C2=O)c1
→ -16%	-6.1%	5%	1.5	8.2	44
CCOC(=O)C1CCC(CN(Cc2ccc(Cl)cc2)S(=O)(=O)c2cc(Cl)cc(Cl)c2)CC1 (stereo unspecified)
→ ·	-0.3%	·	0.6	·	-25
O=C(CSc1nc(-c2ccc(F)cc2)cs1)N1CCN(C(=O)c2ccco2)CC1
→ -21%	0.4%	-6%	1.2	3.4	-1
CSc1ncccc1C(=O)OCC(=O)NC(C)(C)C
→ 17%	-0.8%	5%	0.8	1.5	11
CCCCn1c(CCn2nc(C)c(Br)c2C)n[nH]c1=S
→ 0%	-0.5%	8%	0.3	-3.0	-8
COc1cc(C(=O)Nc2cccc3c2CCCC3)cc(OC)c1OC
→ 6%	·	-25%	0.4	-1.4	23
Cc1cc2c(cc1S(=O)(=O)N(C)CC(=O)Nc1ccc(C#N)cc1)OCC(=O)N2
→ ·	0.0%	·	0.4	·	-24
O=C(N/N=C/c1c[nH]c2ccccc12)c1cc(Cl)ccc1O
→ ?	?	7%	·	-3.7	·
COc1cccc(CNCCNC(=O)c2nonc2N)c1
→ 9%	-2.8%&-4.6%	9%	2.5&-0.5	5.0	12&-8
CC(=O)Nc1cccc(NC(=O)CSc2nnc3ccccn23)c1
→ 6%	-2.4%	-3%[15.4 µM]	0.3	·	58
